# Screening data deposited in PubChem BioAssay by several laboratories.
# ALR inh = inhibitors of human ALR sulfhydryl oxidase, primary screen, biochemical, H2O2 detection, HRP-luminol luminescence, single point; inhibition, % (test concentration not listed); FAD-linked sulfhydryl oxidase ALR (Homo sapiens), P55789; purified ALR, DTT oxidation; 3.8% of 290,000 active;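 active = mean and each replicate at 75% or more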;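 also: stock transfer was 7.5 nL into about 7.5 µL; 0% = neutral wells and 100% = wells with inactivated enzyme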
# HNF4A DNA FP = change in binding of human HNF4A to DNA, primary screen, biochemical, fluorescence polarization, FITC-DNA; 0.3% of 360,000 active; 1 h; Hepatocyte nuclear factor 4-alpha (Homo sapiens), P41235; activity change, % at 10 µM; in the data active = activity change above about 30%, passing the limit was not always enough;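 also: controls were the assay level and a saturating level of protein; the project sought stronger binding though the title names inhibitors; some compounds called inactive have numbers as strong as hits; positive values seem to mean higher polarization but the record does not say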
# Beta2AR agonist = beta2AR agonists driving receptor internalization, primary screen, cell-based, FAP fluorogen, flow cytometry; Beta-2 adrenergic receptor (Homo sapiens), P07550; Am2.2-beta2AR cells; reference of the scale not given here; response, % (test concentration not listed); 0.43% of 340,000 active; AID 504454, 2011;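 active = response above a set limit, near 3 SD of response in nonfluorescent compounds, cut at about 42% in these data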;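 also: stock transfer was 100 nL into about 11 µL; a reference agonist was the positive control; negative values mostly stem from fluorescent compounds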
# FGF22 binding = binders of human FGF22 protein, primary screen, FGF22 synaptogenesis inhibitor project, biophysical, thermal shift, single point; AID 651658, 2012; calls only at 9.99 µM; recombinant FGF22 thermal shift, SYPRO orange fluorescence; percent of sucrose octasulfate shift, DMSO zero; 1.5% of 340,000 active;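 active = melting point raised past a set limit in the mean and every replicate; three in four hits are not shown here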
# LANA-H2B inh = blockers of LANA interaction with H2A/H2B – biochemical, FP readout, HTS, primary screen | inhibition, % (test concentration not listed) | cell-free LANA-H2A/H2B peptide, fluorescence polarization | Protein LANA1 (Human herpesvirus 8 type P (isolate GK18)), Q9QR71 | AID 2629, 2010 | 0.6% of 320,000 active; in the data active = inhibition mostly above about 10%, no sharp cut-off; inactive = mostly below about 6.7%;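 also: stock transfer was 7.5 nL into about 10 µL; 0% = median of vehicle wells and 100% = median of positive control wells; one replicate is shown; the record names a cut of 25% in any replicate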
# Target sequence (Q9QR71 whole entry, looked up): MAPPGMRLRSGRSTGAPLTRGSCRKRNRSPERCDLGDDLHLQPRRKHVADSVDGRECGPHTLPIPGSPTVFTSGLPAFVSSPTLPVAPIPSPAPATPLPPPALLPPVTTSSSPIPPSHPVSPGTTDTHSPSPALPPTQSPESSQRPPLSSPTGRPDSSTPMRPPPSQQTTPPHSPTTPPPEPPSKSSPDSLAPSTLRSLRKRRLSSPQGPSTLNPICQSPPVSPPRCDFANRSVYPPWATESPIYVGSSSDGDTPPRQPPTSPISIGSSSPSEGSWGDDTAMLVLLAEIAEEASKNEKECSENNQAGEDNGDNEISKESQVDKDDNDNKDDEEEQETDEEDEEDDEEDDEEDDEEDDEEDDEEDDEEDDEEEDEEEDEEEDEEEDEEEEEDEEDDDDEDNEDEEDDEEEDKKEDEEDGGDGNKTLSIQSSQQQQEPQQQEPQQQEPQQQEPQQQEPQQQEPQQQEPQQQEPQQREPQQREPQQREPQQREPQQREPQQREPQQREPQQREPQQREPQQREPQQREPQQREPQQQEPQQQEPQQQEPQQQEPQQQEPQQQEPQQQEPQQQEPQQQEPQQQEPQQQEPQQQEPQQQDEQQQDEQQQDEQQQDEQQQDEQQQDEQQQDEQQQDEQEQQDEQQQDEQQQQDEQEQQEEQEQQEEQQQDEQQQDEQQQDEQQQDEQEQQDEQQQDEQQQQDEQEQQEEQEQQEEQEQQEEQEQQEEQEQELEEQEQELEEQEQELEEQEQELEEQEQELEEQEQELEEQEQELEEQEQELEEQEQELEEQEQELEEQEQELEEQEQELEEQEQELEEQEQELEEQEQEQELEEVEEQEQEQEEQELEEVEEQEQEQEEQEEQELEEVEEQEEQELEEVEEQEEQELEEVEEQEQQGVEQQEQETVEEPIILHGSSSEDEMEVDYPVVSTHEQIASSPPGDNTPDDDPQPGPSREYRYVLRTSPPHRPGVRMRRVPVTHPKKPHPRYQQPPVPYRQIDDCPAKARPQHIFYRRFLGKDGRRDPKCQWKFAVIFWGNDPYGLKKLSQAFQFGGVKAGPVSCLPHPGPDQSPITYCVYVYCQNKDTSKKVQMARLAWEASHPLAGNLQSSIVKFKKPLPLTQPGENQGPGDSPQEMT
# E coli growth = E. coli growth inhibition, primary screen, OD600; 0.21% of 330,000 active; Escherichia coli growth, 23 h; hits give low values; AID 1053175, 2014; OD600 absorbance (no concentration beside the values);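 active = OD600 absorbance below the run mean of sample wells minus 3.6 SD, in any replicate, cut at about 0.56 in these data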;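 also: stock transfer was 300 nL into about 60 µL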
# UCH37 DUB inh = inhibitors of human UCH37 deubiquitinase, primary screen, biochemical, Ub-AMC cleavage, fluorescence; 0.33% of 330,000 active; purified proteasome/UCH37; inhibition, % (concentration not given with the values);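 active = mean of two replicates above 20%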;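 also: 0% = compound-free wells with enzyme and 100% = wells lacking proteasome; stock transfer was 100 nL into about 20 µL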
#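 Signal – fluorescence, ex 355 nm, em 460 nm · System – Proteasome-bound UCH37 · Input – 0.15 nM proteasome as dispensed · Timing – 30 min preincubation with enzyme, 25 min cleavage at room temperature · Read-out basis – percent inhibition of cleavage signal versus uninhibited and no-proteasome wells · Medium – Tris-HCl pH 7.4 with ATP-MgCl2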
# The depositor's hits bear a star; i = inactive; . = not tested or not shown. Some of the compounds tested. The share of hits here may be higher or lower than overall.
no.	SMILES	ALR inh	HNF4A DNA FP	Beta2AR agonist	FGF22 binding	LANA-H2B inh	E coli growth	UCH37 DUB inh
1	O=C(Nc1cccc(C(F)(F)F)c1)Nn1cnnc1	-5	-0.1	4	i	-2.8	0.68	-0.1
2	CCN(CC)CC1CN(N=Cc2ccc([N+](=O)[O-])o2)C(=O)O1 (centres undefined)	.	-4.4	-4	i	.	0.064*	7.8
3	COc1cccc(CNS(=O)(=O)c2ccc(N3CCCC3=O)cc2)c1	0	0.0	-3	i	-7.0	0.62	0.2
4	COc1ccc(N/N=C(\C=N\O)C(=O)c2ccc(OC)cc2)cc1	93*	1.5	36	.	-3.1	.	.
5	C[C@]12C(=O)N(c3cccc(Cl)c3)C(=O)N1[C@H]1c3ccccc3OC[C@@H]1[C@H]2c1ccccc1	0	4.3	16	.	5.7	.	0.0
6	O=C(Nc1ccnc(-c2cccnc2)n1)c1ccc(Cl)c(Cl)c1	.	1.9	-8	.	.	0.71	-1.2
7	O=C(O)c1cccc(COCC(F)(F)C(F)F)c1	-6	-0.1	8	.	-3.5	0.63	4.1
8	C=CCN(c1ccccc1)S(=O)(=O)c1cccc(C(=O)OCC(=O)NCCOC)c1	2	4.3	-10	i	-0.1	0.65	2.2
9	Cc1cc2cc(C(c3nnnn3CC3CCCO3)N3CCCc4ccccc43)c(=O)[nH]c2cc1C (centres undefined)	.	4.8	4	.	.	0.71	9.2
10	Cn1c(=O)c2c(nc(NCc3cccnc3)n2Cc2ccccc2Cl)n(C)c1=O	.	0.2	-8	i	-2.0	0.75	1.7
11	Cc1ccc(C)c(OCCC(=O)Nc2ccc3c(c2)OCO3)c1	-3	-1.3	-3	i	-1.5	0.68	4.7
12	Cc1ccc(NS(=O)(=O)c2ccc3[nH]c(=O)sc3c2)cc1	1	-2.1	1	i	-7.8	0.66	-0.1
13	O=C(Cn1cccc1)N1CCc2ccccc21	0	-2.4	4	.	0.1	0.61	0.8
14	CCOC(=O)c1cnc2ccc(OCC)cc2c1N1CCN(c2ccccc2)CC1	0	1.0	2	.	1.7	0.72	2.8
15	O=C(Nc1ccc2nc(-c3ccco3)[nH]c2c1)c1cccs1	-4	1.7	-14	.	6.9	0.62	3.2
16	O=C(CSc1nc2ccccc2c(=O)n1CCCN1CCOCC1)NCCc1ccccc1	-6	4.7	4	i	-3.5	0.7	1.1
17	COc1ccc(N2C(=O)CC(N3CCOCC3)C2=O)cc1 (centres undefined)	.	-3.5	7	.	0.9	0.75	4.3
18	CC(=C\C(=O)O)/C(=C/c1ccco1)C(=O)O	4	-4.0	2	i	-2.4	0.67	0.1
19	CC1CN(C(=S)Nc2ccccc2F)CC(C)O1 (centres undefined)	-7	-1.0	0	i	0.6	0.66	1.7
20	O=C(Nc1cccc(F)c1)C1CC(=O)N(c2ccc(Br)cc2)C1 (centres undefined)	.	-1.4	-6	.	1.6	0.7	2.0
21	O=C(C1CCN(S(=O)(=O)c2cccs2)CC1)N1CCN(Cc2ccccc2)CC1	-4	-0.2	6	i	-5.0	0.6	2.2
22	CC(C)(C)C1C/C(=C/c2ccccn2)C(=O)/C(=C/c2ccccn2)C1 (centres undefined)	22	0.3	85*	.	-2.1	0.72	1.0
23	O=C(Nc1c2c(nn1-c1ccc([N+](=O)[O-])cc1)CS(=O)(=O)C2)C1CC1	1	-0.8	-2	i	-4.0	0.69	2.2
24	COc1ccccc1C(=O)NC(=S)N1CCc2ccccc21	4	1.7	-15	i	2.1	0.69	8.2
25	C=C1C(=O)OC2C=C(CO)C3OC3C3OC3(C)CC(OC(=O)/C(=C/C)COC(C)=O)C12 (centres undefined)	.	-0.4	5	i	.	.	.
26	COC(=O)COc1cccc2c(=O)n(CC(=O)N3CCC(C)CC3)ccc12	-4	-3.2	4	i	-0.4	0.7	0.3
27	COc1ccc(-c2nc(CCNS(=O)(=O)c3ccc4c(c3)OCCO4)cs2)cc1	.	1.7	-1	i	2.2	0.75	0.0
28	COc1cccc(N2C(=O)CC(N3CCN(c4ccc([N+](=O)[O-])cc4)CC3)C2=O)c1 (centres undefined)	-2	1.8	-1	i	-0.8	0.71	11
29	CC(=O)Nc1ccc(NC(=O)Nc2ccc3c(c2)N(C)C(=O)CS3)cc1	-3	1.6	-7	i	-4.0	0.68	3.3
30	COc1ccc2nc(C)cc(SCC(=O)N/N=C/c3ccc(O)c(O)c3)c2c1	88*	-2.7	17	i	2.0	.	.
31	C/C(CC(=O)NC1CCCC1)=N\NC(=O)c1ccc([N+](=O)[O-])c(Cl)c1	-20	-1.7	-4	.	-0.9	.	.
32	O=C(Nc1ccnn1C1CCN(C2CCCC2)CC1)c1ccccc1Cl	-2	2.0	6	i	-1.1	0.66	5.9
33	O=C(CCc1nnc2ccc(NCc3ccccc3Cl)nn12)NC1CCCC1	0	1.7	-11	i	-2.1	0.71	5.9
34	N#CCCN(Cc1ccccc1)C(=O)Nc1ccc(F)cc1	-7	0.4	-5	i	-3.2	0.69	1.8
35	COc1ccc(S(=O)(=O)N2CCc3ccccc32)cc1C(=O)NCCc1ccc(S(N)(=O)=O)cc1	9	-3.0	11	i	12	0.7	0.3
36	O=C(NCCN1CCOCC1)c1cn(CCc2ccccc2)nn1	-7	-1.5	-10	.	-0.6	0.75	-0.2
37	COc1ccc(-n2ncc3c(N4CCC(C(N)=O)CC4)ncnc32)cc1	-1	-0.1	3	.	4.2	0.69	3.0
38	CN1/C(=C\C(=O)Nc2cccnc2)c2ccccc2CC1(C)C	.	-1.3	16	i	.	.	2.5
39	O=C(Nc1ccc(N2CCN(C(=O)c3ccco3)CC2)cc1)C(c1ccccc1)c1ccccc1	-10	4.5	13	.	-6.9	0.67	2.0
40	O=C(O)c1c2c(nc3ccc(F)cc13)CCC2	-8	-0.8	5	i	-4.1	0.74	2.3
41	CCC(=O)NS(=O)(=O)c1cccnc1Nc1ccccc1Cl	0	-0.7	2	.	-0.2	0.73	1.1
42	CC(C)c1c(Cl)c(O)c(-c2ccccc2)c(=O)n1-c1ccc(F)cc1	1	-0.4	-8	.	1.3	0.69	1.3
43	CC(C)COCc1ccc(O)c2ncccc12	-31	5.1	2	.	4.2	0.74	-0.8
44	O=C(N[C@@H]1C/C=C\C[C@@H](CC(=O)N(CCO)Cc2ccccc2)C(=O)NC[C@H](c2ccccc2)OC1=O)OCC1c2ccccc2-c2ccccc21	-1	0.6	10	i	0.4	.	4.4
45	CCC(C(=O)OCC(=O)c1ccc2c(c1)NC(=O)CO2)c1ccccc1 (centres undefined)	-73	-0.4	-2	i	-4.6	0.7	1.6
46	O=[N+]([O-])c1ccccc1S(=O)(=O)n1cnc2ccccc21	95*	3.4	-4	i	8.3	0.73	3.1
47	COc1ccc(C(=O)Cn2cnc3ccccc3c2=O)c(OC)c1	-11	3.3	5	i	1.8	0.7	4.5
48	Cc1ccc(CCNC(=O)C2CC(c3cc(C(F)(F)F)cc(C(F)(F)F)c3)=NO2)cc1 (centres undefined)	3	-2.9	-2	.	-0.8	0.65	2.3
49	Cc1n[nH]c(C)c1NC(=O)CSc1nnnn1-c1cccc(F)c1	-2	-1.9	11	i	0.9	0.63	0.0
50	CSc1nnc(C(C)(C)C)c(=O)n1/N=C/c1ccc(C(C)C)cc1	-5	-1.5	-2	i	-1.2	.	.

# Other structures.
no.	SMILES	ALR inh	HNF4A DNA FP	Beta2AR agonist	FGF22 binding	LANA-H2B inh	E coli growth	UCH37 DUB inh
51	COC(=O)C1C(O)=C(C=NC2CCCCC2)C(=O)CC1(C)C (centres undefined)	0	-0.3	18	.	-0.8	0.78	2.8
52	CCn1c(NC(=O)c2cccc(Cn3cc(Cl)cn3)c2)nc2ccccc21	-12	3.6	-24	i	8.9	0.73	-30
53	CC1=C(C(=O)Nc2ccccc2)C(c2ccncc2)C(C#N)=C(SCC(=O)Nc2ccccc2)N1 (centres undefined)	-24	-0.5	-10	.	4.1	0.73	2.0
54	Cc1oc(-c2ccccc2F)nc1CS(=O)(=O)CC(=O)NCCN1CCCC1	-1	1.8	-2	i	2.6	0.68	-2.0
55	c1ccc2c(c1)[nH]c1c3ccccc3sc21	2	-3.1	6	i	-2.3	0.69	0.5
56	CCCCCOc1ccc(CSc2n[nH]c(C)n2)cc1	-1	-2.5	2	i	-3.3	0.65	4.3
57	CCOC(=O)c1c(NC(=O)CSc2nnnn2-c2ccc(OC)cc2)sc(C)c1C	-3	-0.5	-5	.	-0.4	0.72	7.4
58	COc1ccc(Cc2nnc(SCC(=O)c3ccccc3)o2)cc1	37	-0.6	-6	.	-3.1	0.73	0.5
59	Cc1cc(C)c2nc(-c3ccccn3)cc(C(=O)NCc3ccco3)c2c1	89*	-4.3	7	.	-6.0	0.76	-57
60	C#CC[N+](C)(C)CCCCCCCCC	.	-2.1	-6	i	-1.5	0.64	1.6
61	CCN(CC)CC(=O)NCC1(c2ccccc2)CCCC1	-3	6.0	-1	i	-3.5	0.7	0.4
62	COc1cccc(CN(C)C(=O)COc2ccc(C(=O)c3ccc(Cl)cc3)cc2)c1OC	3	1.5	10	i	0.9	0.66	2.2
63	COc1ccc(CC(=O)Nc2cccc(-c3ccc4nnc(C)n4n3)c2)cc1	-14	5.7	8	i	1.6	0.66	2.3
64	CCCCC1CCC(C(=O)Nc2ccccc2)CC1 (centres undefined)	0	-1.9	9	.	1.8	0.69	2.3
65	COc1cc(NC(=O)CCCC(=O)OCC(F)(F)C(F)F)nc(OC)n1	-4	-1.0	3	.	0.3	0.67	3.5
66	CC(C)c1ccc(N(C(=O)c2csnn2)C(C(=O)NC2CCCC2)c2cccnc2)cc1 (centres undefined)	-2	-1.2	-6	i	-2.5	0.7	-1.8
67	O=C(O)C1CC(c2ccccc2F)=NO1 (centres undefined)	-26	-3.3	8	.	-3.4	0.68	0.3
68	CCN(CC)C(=S)SCC(=O)Nc1cccc(C(F)(F)F)c1	-14	3.4	1	.	3.2	0.68	3.9
69	O=C(NC1CCN(C(=O)Nc2ccc(F)cc2)CC1)c1cccc(F)c1	-10	17	2	i	2.9	0.65	2.2
70	COc1cccc(OC)c1C(=O)NC(=O)Oc1c(F)cccc1F	-16	1.7	6	i	1.1	0.68	-0.6
71	CC(C)(C)c1cc(C(=O)N/N=C/c2cc3c(cc2Br)OCO3)n[nH]1	-1	0.9	5	i	-5.5	.	.
72	O=C(O)c1ccccc1-c1ccccc1C(=O)NCc1cccnc1	-28	-0.3	10	i	-4.8	0.69	-1.1
73	COC(=O)C1CCN(C(=O)COC(=O)c2ccc(N3CCCC3=O)cc2)CC1	-7	1.7	-3	i	-1.0	0.65	-2.5
74	CC1(CCc2ccccc2)NC(=O)N(Cc2cc([N+](=O)[O-])cc3c2OCOC3)C1=O (centres undefined)	1	0.4	-19	i	-0.8	0.68	5.8
75	O=C(CNC(=O)c1ccc(Br)o1)NCc1ccc(F)cc1	2	-0.9	-14	i	-99	0.73	3.3
76	COc1ccc(S(=O)(=O)N2CCCCCC2)cc1NC(=O)Cc1cc(OC)c(OC)c(OC)c1	.	0.8	0	.	0.7	0.71	5.7
77	Cc1cc(C)n(CC(=O)N/N=C/c2ccc([N+](=O)[O-])s2)n1	-33	1.7	-4	i	-0.1	.	.
78	O=C1OC(N2C(=O)CC[C@H]2C(=O)Nc2ccc(F)c(F)c2)c2ccccc21 (some centres undefined)	6	0.6	2	i	-0.9	0.71	1.2
79	C=CCN1N=C(c2ccc(Cl)s2)CSC1=O	-2	2.1	2	.	5.8	0.67	1.1
